# A1 apoptosis 2 = blocks A1, raising caspase activity. MEF A1-2A-BIM cells, caspase-Glo luminescence, 3 h; percent of clofoctol response, DMSO zero. caspase activation, % (concentration not given with the values). 24,000 tested, under 10 active. AID 2465; in the data active means caspase activation above about 5.9%;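 further: wells of about 30 µL received 50 nL stock; the first replicate is given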
#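 system = A1-2A-BIM-expressing MEF cells | quantity = 2500 MEF cells/well | dosing = 50 nL compound per well, pinned | schedule = overnight cell settling, then 3 h compound exposure, 37 °C | signal = luminescence from DEVD-luciferin Caspase-Glo reagent, 1:1 in 50 mM HEPES, 1 h RT | read-out = Caspase-3/7 activation, seen as rise in luminescence signal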
# The depositor's hits bear a star. Some of the compounds tested; the hit share may differ from the screen's.
SMILES,A1 apoptosis 2
CN1C(=O)N[C@@H]2c3ccccc3O[C@@]1(C)[C@@H]2COC(=O)c1ccccc1,0.1
COc1ccc(NC(=O)Nc2ccc3c(c2)C(=O)N([C@@H](C)CO)C[C@@H](C)[C@H](CN(C)Cc2ccc(C(F)(F)F)cc2)OCCCC[C@@H](C)O3)cc1,0.8
CC(C)NC(=O)Nc1ccc2c(c1)C(=O)N([C@@H](C)CO)C[C@H](C)[C@@H](CN(C)Cc1ccccc1)OCCCC[C@H](C)O2,0.1
C[C@H]1CN([C@@H](C)CO)C(=O)c2cccc(NC(=O)Nc3ccc(F)cc3)c2O[C@@H]1CN(C)C(=O)Nc1ccccc1,-0.2
C[C@@H]1CCCCO[C@H](CN(C)S(=O)(=O)c2cn(C)cn2)[C@H](C)CN([C@@H](C)CO)C(=O)c2cc(NS(=O)(=O)c3ccc(Cl)cc3)ccc2O1,0.6
C[C@H]1CN([C@@H](C)CO)C(=O)Cc2cc(NS(C)(=O)=O)ccc2O[C@@H]1CN(C)C(=O)Nc1ccccc1,1.0
Cc1noc(C)c1S(=O)(=O)Nc1ccc2c(c1)C(=O)N([C@H](C)CO)C[C@H](C)[C@@H](CN(C)Cc1ccc(C(=O)Nc3ccccc3N)cc1)O2,1.1
CCCN(C)C[C@H]1OCc2cn(nn2)CCCC(=O)N([C@@H](C)CO)C[C@H]1C,0.0
Cc1noc(C)c1NC(=O)Nc1ccc2c(c1)C(=O)N([C@H](C)CO)C[C@H](C)[C@H](CN(C)S(=O)(=O)c1c(C)noc1C)OCCCC[C@H](C)O2,-1.4
COc1ccc(CN(C)C[C@H]2OCCCC[C@@H](C)Oc3ccc(NC(=O)Nc4ccc(OC)cc4)cc3C(=O)N([C@@H](C)CO)C[C@@H]2C)cc1,0.3
C[C@@H]1CN([C@@H](C)CO)C(=O)Cc2cc(N(C)C)ccc2O[C@@H]1CN(C)C(=O)Nc1ccccc1,0.9
COc1ccc(CN(C)C[C@@H]2Oc3ccc(NC(=O)Cc4cn(C)c5ccccc45)cc3CC(=O)N([C@H](C)CO)C[C@@H]2C)cc1,-0.7
COc1ccc(CN(C)C[C@@H]2OCCCC[C@H](C)Oc3ccc(NC(=O)NC(C)C)cc3C(=O)N([C@H](C)CO)C[C@@H]2C)cc1,1.3
CNC[C@H]1OCCCC[C@@H](C)Oc2ccc(NC(=O)CCC(F)(F)F)cc2C(=O)N([C@@H](C)CO)C[C@@H]1C,0.2
Cc1noc(C)c1S(=O)(=O)Nc1ccc2c(c1)C(=O)N([C@@H](C)CO)C[C@@H](C)[C@@H](CN(C)S(=O)(=O)c1cccs1)OCCCC[C@@H](C)O2,-1.2
C[C@@H]1CCCCO[C@@H](CN(C)C(=O)C2CCCCC2)[C@H](C)CN([C@@H](C)CO)C(=O)c2cc(NC(=O)CCCN(C)C)ccc2O1,2.4
CC(=O)n1cc([C@H]2C=C(C(=O)N3CCN(Cc4ccc5c(c4)OCO5)CC3)O[C@@H](OCc3ccc(CO)cc3)C2)c2ccccc21,0.5
C[C@@H]1CN([C@H](C)CO)C(=O)CCCn2nncc2CO[C@@H]1CN(C)S(=O)(=O)c1cccc(F)c1,0.8
COc1ccc(NC(=O)N(C)C[C@@H]2OCCCC[C@@H](C)Oc3ccc(NC(=O)Nc4ccc(C(F)(F)F)cc4)cc3C(=O)N([C@@H](C)CO)C[C@H]2C)cc1,2.3
CNC[C@@H]1OCCCC[C@@H](C)Oc2ccc(NS(=O)(=O)c3ccc(OC)cc3)cc2C(=O)N([C@H](C)CO)C[C@@H]1C,-0.5

# Next section (2 carried over from the part before).
SMILES,A1 apoptosis 2
COc1ccc(NC(=O)N(C)C[C@@H]2OCCCC[C@@H](C)Oc3ccc(NC(=O)Nc4ccc(C(F)(F)F)cc4)cc3C(=O)N([C@@H](C)CO)C[C@H]2C)cc1,2.3
CNC[C@@H]1OCCCC[C@@H](C)Oc2ccc(NS(=O)(=O)c3ccc(OC)cc3)cc2C(=O)N([C@H](C)CO)C[C@@H]1C,-0.5
C[C@H]1CN([C@@H](C)CO)C(=O)c2cc(NS(=O)(=O)c3ccccc3)ccc2O[C@@H]1CN(C)C(=O)Nc1ccc(C(F)(F)F)cc1,0.3
COc1ccc(/C=N/NC(=O)c2ccc(C(=O)NO)cc2)cc1O,-1.0
C[C@H](CO)N1C[C@H](C)[C@@H](CN(C)Cc2ccncc2)Oc2ccc(NC(=O)CCC(F)(F)F)cc2CC1=O,-0.3
Cc1ccc(S(=O)(=O)Nc2ccc3c(c2)C(=O)N([C@H](C)CO)C[C@@H](C)[C@H](CN(C)C(=O)NC2CCCCC2)OCCCC[C@H](C)O3)cc1,-1.5
C[C@@H]1CN([C@@H](C)CO)C(=O)c2cccc(NS(C)(=O)=O)c2O[C@@H]1CN(C)Cc1ccc2c(c1)OCO2,-1.1
CC(C)NC(=O)N(C)C[C@H]1Oc2c(NC(=O)c3cnccn3)cccc2C(=O)N([C@H](C)CO)C[C@@H]1C,1.1
COc1ccc(NC(=O)Nc2ccc3c(c2)C(=O)N([C@H](C)CO)C[C@H](C)[C@@H](CN(C)Cc2ccc4c(c2)OCO4)OCCCC[C@@H](C)O3)cc1,0.6
C[C@H]1CN([C@@H](C)CO)C(=O)c2cc(N(C)C)ccc2O[C@H]1CN(C)S(=O)(=O)c1ccccc1,0.5
COc1ccc(S(=O)(=O)Nc2ccc3c(c2)CC(=O)N([C@H](C)CO)C[C@H](C)[C@@H](CN(C)C(=O)Nc2ccc(F)cc2)O3)cc1,1.9
C[C@@H]1CN([C@H](C)CO)C(=O)c2cc(NS(=O)(=O)c3cccs3)ccc2O[C@@H](C)CCCCO[C@H]1CN(C)Cc1ccccc1,-0.8
CCCN(C)C[C@@H]1OCCCC[C@@H](C)Oc2ccc(NS(=O)(=O)c3ccccc3)cc2C(=O)N([C@H](C)CO)C[C@@H]1C,1.2
C[C@H](CO)N1C[C@H](C)[C@H](CN(C)C)OCCCC[C@H](C)Oc2ccc(NS(=O)(=O)c3cn(C)cn3)cc2C1=O,-0.7
C[C@@H]1CN([C@H](C)CO)C(=O)Cc2cc(NC(=O)Nc3ccc(C(F)(F)F)cc3)ccc2O[C@@H]1CN(C)S(=O)(=O)c1ccc(F)cc1,-0.3
C[C@@H]1CN([C@H](C)CO)C(=O)c2cccc(NC(=O)NC3CCCCC3)c2O[C@@H]1CN(C)C,-0.4
C[C@H]1CCCCO[C@H](CN(C)C(=O)Nc2ccccc2)[C@@H](C)CN([C@@H](C)CO)C(=O)c2cc(NC(=O)c3ccccc3)ccc2O1,1.6
C[C@H]1CCCCO[C@@H](CN(C)C(=O)Nc2ccccc2)[C@@H](C)CN([C@@H](C)CO)C(=O)c2cc(NC(=O)CCC(F)(F)F)ccc2O1,0.4
C[C@@H]1CN([C@H](C)CO)C(=O)c2cc(NC(=O)CCCCCC(=O)Nc3ccccc3N)ccc2O[C@@H]1CN(C)S(C)(=O)=O,-0.1
COCCOC(=O)N1C(=O)[C@@]2(c3cc(C#Cc4ccc(OC)cc4)ccc31)[C@H](C(N)=O)[C@H]1C(=O)O[C@H](c3ccccc3)[C@H](c3ccccc3)N1[C@@H]2c1ccc(OCCO)cc1,1.3
CCOC(=O)[C@@H]1CCCCN1C(=O)C(=O)OC,0.8
C[C@@H]1CCCCO[C@@H](CN(C)S(=O)(=O)c2ccc(F)cc2)[C@@H](C)CN([C@H](C)CO)C(=O)c2cc(NS(=O)(=O)c3cn(C)cn3)ccc2O1,1.4
C[C@H]1CCCCO[C@H](CN(C)C(=O)Nc2ccc(C(F)(F)F)cc2)[C@@H](C)CN([C@@H](C)CO)C(=O)c2cc(NC(=O)CCC(F)(F)F)ccc2O1,0.3
C[C@@H]1CN([C@H](C)CO)C(=O)c2cc(NC(=O)Cc3ccccc3)ccc2O[C@@H](C)CCCCO[C@@H]1CN(C)C(=O)CCC(F)(F)F,-0.6
C[C@H](CO)N1C[C@H](C)[C@@H](CN(C)S(=O)(=O)c2cn(C)cn2)Oc2ccc(NC(=O)NC3CCCCC3)cc2C1=O,-1.3
CC(C)NC(=O)N(C)C[C@@H]1Oc2c(NS(=O)(=O)c3cn(C)cn3)cccc2C(=O)N([C@H](C)CO)C[C@H]1C,0.2
C[C@@H]1CN([C@@H](C)CO)C(=O)c2cc(NC(=O)Cc3cn(C)c4ccccc34)ccc2O[C@@H]1CN(C)S(=O)(=O)c1ccccc1,-1.1
CC(C)(C)OC(=O)Nc1cccc(/C=N/NC(=O)CCCCCC(=O)Nc2ccccc2O)c1,-1.5
C[C@H](CO)N1C[C@H](C)[C@@H](CN(C)C(=O)Nc2cccc3ccccc23)Oc2c(NS(=O)(=O)c3cccs3)cccc2C1=O,0.5
C[C@H]1CN([C@@H](C)CO)C(=O)Cc2cc(NC(=O)Cc3ccccc3)ccc2O[C@H]1CN(C)Cc1ccc(Cl)c(Cl)c1,0.8
C[C@H]1CCCCO[C@H](CN(C)C(=O)NC2CCCCC2)[C@@H](C)CN([C@@H](C)CO)C(=O)c2cc(NS(=O)(=O)c3cccs3)ccc2O1,0.6
Cc1noc(C)c1S(=O)(=O)N(C)C[C@H]1OCCCC[C@H](C)Oc2ccc(NC(=O)Nc3ccc(F)cc3)cc2C(=O)N([C@H](C)CO)C[C@@H]1C,-0.3
C[C@@H]1CCCCO[C@@H](CN(C)S(=O)(=O)c2ccc(Cl)cc2)[C@H](C)CN([C@H](C)CO)C(=O)c2cc(NS(=O)(=O)c3ccc(F)cc3)ccc2O1,0.0
C[C@@H]1CN([C@@H](C)CO)C(=O)c2cccc(NC(=O)c3ccncc3)c2O[C@H]1CN(C)Cc1ccc(C(F)(F)F)cc1,-0.3
C[C@@H]1CN([C@H](C)CO)C(=O)CCCn2cc(nn2)CO[C@H]1CN(C)C(=O)C1CC1,-0.9
CC(C)NC(=O)Nc1ccc2c(c1)C(=O)N([C@@H](C)CO)C[C@@H](C)[C@@H](CN(C)Cc1ccc(C(=O)O)cc1)OCCCC[C@@H](C)O2,-0.8
C[C@H]1CN([C@@H](C)CO)C(=O)CCCn2nncc2CO[C@H]1CN(C)S(=O)(=O)c1ccc(C#N)cc1,-0.8
O=C1N(Cc2ccccc2)Cc2ccccc2[C@H]2OC(c3ccc(OCCCO)cc3)=N[C@@]12Cc1ccccc1,-0.4
C[C@@H]1CCCCO[C@H](CN(C)S(=O)(=O)c2cn(C)cn2)[C@@H](C)CN([C@H](C)CO)C(=O)c2cc(NC(=O)c3ccncc3)ccc2O1,0.6
CC(C)NC(=O)N(C)C[C@@H]1Oc2c(cccc2N(C)C)C(=O)N([C@H](C)CO)C[C@@H]1C,-0.3
Cc1ccc(S(=O)(=O)N(C)C[C@H]2OCCCC[C@H](C)Oc3ccc(NC(=O)Nc4c(C)noc4C)cc3C(=O)N([C@H](C)CO)C[C@H]2C)cc1,1.1
Cc1noc(C)c1NC(=O)Nc1ccc2c(c1)C(=O)N([C@H](C)CO)C[C@H](C)[C@@H](CN(C)Cc1ccc(C(F)(F)F)cc1)OCCCC[C@@H](C)O2,-0.2
C[C@@H]1CCCCO[C@H](CN(C)Cc2ccccc2)[C@H](C)CN([C@H](C)CO)C(=O)c2cc(N(C)C)ccc2O1,0.0
COc1ccc(S(=O)(=O)N(C)C[C@@H]2Oc3c(NC(=O)c4nc5ccccc5s4)cccc3C(=O)N([C@@H](C)CO)C[C@@H]2C)cc1,-1.1
CC(C)NC(=O)Nc1ccc2c(c1)C(=O)N([C@@H](C)CO)C[C@@H](C)[C@H](CN(C)S(=O)(=O)c1ccccc1)OCCCC[C@H](C)O2,0.1
C[C@@H]1CN([C@@H](C)CO)C(=O)c2cc(NC(=O)C3CC3)ccc2O[C@H]1CN(C)S(=O)(=O)c1cccs1,0.0
C[C@@H]1CN([C@H](C)CO)C(=O)c2cc(NC(=O)Nc3cccc4ccccc34)ccc2O[C@@H](C)CCCCO[C@H]1CN(C)Cc1ccc(Cl)c(Cl)c1,-0.3
C[C@@H]1CN([C@H](C)CO)C(=O)CCCn2cc(nn2)CO[C@H]1CN(C)Cc1ccc(-c2ccccc2)cc1,0.2
C[C@H]1CN([C@@H](C)CO)C(=O)c2cccc(NS(=O)(=O)c3cn(C)cn3)c2O[C@@H]1CN(C)CC1CCCCC1,0.6
C[C@@H]1CN([C@@H](C)CO)C(=O)c2cc(NC(=O)NC3CCCCC3)ccc2O[C@H]1CN(C)C(=O)Nc1ccc(C(F)(F)F)cc1,-0.3
C[C@@H]1CN([C@@H](C)CO)C(=O)Cc2cc(NS(C)(=O)=O)ccc2O[C@H]1CN(C)S(=O)(=O)c1ccccc1,-0.3
Cc1ccccc1/C=N/NC(=O)CCCCCCC(=O)O,-0.1

# Looked up above.
# C[C@@H]1CN([C@H](C)CO)C(=O)c2cc(NC(=O)Nc3cccc4ccccc34)ccc2O[C@@H](C)CCCCO[C@H]1CN(C)Cc1ccc(Cl)c(Cl)c1 | A1 apoptosis 2 = -0.3
# CC(C)NC(=O)Nc1ccc2c(c1)C(=O)N([C@@H](C)CO)C[C@@H](C)[C@H](CN(C)S(=O)(=O)c1ccccc1)OCCCC[C@H](C)O2 | A1 apoptosis 2 = 0.1
# C[C@H]1CN([C@@H](C)CO)C(=O)c2cccc(NS(=O)(=O)c3cn(C)cn3)c2O[C@@H]1CN(C)CC1CCCCC1 | A1 apoptosis 2 = 0.6
# COc1ccc(S(=O)(=O)N(C)C[C@@H]2Oc3c(NC(=O)c4nc5ccccc5s4)cccc3C(=O)N([C@@H](C)CO)C[C@@H]2C)cc1 | A1 apoptosis 2 = -1.1
# C[C@@H]1CN([C@@H](C)CO)C(=O)c2cc(NC(=O)NC3CCCCC3)ccc2O[C@H]1CN(C)C(=O)Nc1ccc(C(F)(F)F)cc1 | A1 apoptosis 2 = -0.3

# Assay outcomes (PubChem)
